HP1b binding inh: inhibitors of HP1-beta chromodomain binding to methylated histone tails. P83916. AlphaScreen HP1-beta / biotin-H3K9me3 peptide binding. Potency, µM (doses to about 114 µM), without a hit: top-dose activity change, negative = inhibition, hits mostly inhibitors. 390,000 compounds, 0.56% hits. AID 540317; note: potency is the fitted concentration of half-maximal effect; nearly all actives have a fitted effect of over 70% in size; inactives centre near 23
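Compound inhibition of the preformed complex between 50 nM HP1-beta and 50 nM biotinylated H3K9me3 peptide was read by AlphaScreen. Buffer was PBS pH 7.4 with 0.01% Tween-20. Incubations ran 30 min at room temperature, with 10 ug/mL donor/acceptor beads.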
GLS inh: inhibitors of human glutaminase (GLS). GLS enzymatic activity, qHTS titration. AID 624170. Potency, µM (highest dose often 45.5 µM), inactives show at the highest dose activity change, negative = inhibition, usual class: inhibitors. O94925. 410,000 compounds, 0.21% hits; note: potency is the fitted concentration of half-maximal effect; % is set by controls: 0 for no effect and ±100 for the full control effect
Target sequence (O94925 whole entry, looked up): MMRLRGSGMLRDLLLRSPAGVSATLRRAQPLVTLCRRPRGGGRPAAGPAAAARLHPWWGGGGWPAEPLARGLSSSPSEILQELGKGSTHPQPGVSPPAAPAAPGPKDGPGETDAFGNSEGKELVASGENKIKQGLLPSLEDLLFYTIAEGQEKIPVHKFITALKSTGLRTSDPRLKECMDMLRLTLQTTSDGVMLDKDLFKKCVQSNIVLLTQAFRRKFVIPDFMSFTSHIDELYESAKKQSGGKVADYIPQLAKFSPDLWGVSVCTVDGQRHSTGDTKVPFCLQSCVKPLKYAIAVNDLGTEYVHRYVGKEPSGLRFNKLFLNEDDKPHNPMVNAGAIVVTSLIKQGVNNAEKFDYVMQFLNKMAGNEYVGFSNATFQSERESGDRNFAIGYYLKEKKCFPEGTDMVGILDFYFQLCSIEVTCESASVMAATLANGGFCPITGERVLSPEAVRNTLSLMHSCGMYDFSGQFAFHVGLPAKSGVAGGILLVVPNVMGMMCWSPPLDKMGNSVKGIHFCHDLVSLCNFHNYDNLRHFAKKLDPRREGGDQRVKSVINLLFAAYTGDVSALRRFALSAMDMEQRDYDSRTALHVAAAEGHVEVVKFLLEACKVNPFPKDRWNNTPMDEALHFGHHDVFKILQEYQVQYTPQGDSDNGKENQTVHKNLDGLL
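hKGA; 45 mM KH2PO4 pH 8.2 + 0.02% Tween-20; cpd via pin tool; 1 mM Gln soln; GluOx/HRP/Amplex Red; RT 30 min; fluor. t0 & final.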
RGS4 inh: human RGS4 inhibition; 390,000 compounds, 0.039% hits; Potency, µM (doses to about 114 µM), for inactives: at the highest dose activity change, negative = inhibition, actives largely listed as inhibitors; Transcreener GDP fluorescence polarization, RGS4-accelerated GTP hydrolysis; P49798; note: potency is the fitted concentration of half-maximal effect; % is set by controls: 0 for no effect and ±100 for the full control effect; nearly all actives have a fitted effect of over 75% in size; some results filed as inactive show a strong effect at the top dose
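MLSMR compounds (23 nl, pin-transferred) preincubated 10 min at room temperature with a 500nM (2x) first reagent, then RGS4 at 900nM (2x) plus Transcreener GDP mix added; fluorescence polarization (620/688 nm) read before and after 90 min at 30 °C.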
12-LOX inh: blocks human arachidonate 12S-lipoxygenase. P18054. purified 12hLO, xylenol orange hydroperoxide absorbance. Potency, µM (series often up to 108 µM), for the others: top-dose activity change, negative = inhibition, most hits filed as inhibitors. 580,000 compounds, 1.1% hits; note: potency is the fitted concentration of half-maximal effect; % is set by controls: 0 for no effect and ±100 for the full control effect
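Purified human 12hLO at 150 nM in 25 mM Hepes, 0.01% Triton X-100, pH 7.0, preincubated 15 min at room temperature with compound. Reaction started with 40 uM arachidonic acid, 30 min at room temperature. Hydroperoxide measured by Fe-xylenol orange, 573/405 nm absorbance ratio.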
PI4K2A inh: blocks human PI4K2A kinase activity; Q9BTU6; purified PI4K2A, ADP-Glo luminescence, 1 h; stronger effect = lower value; activity change, negative = inhibition, % at 76.9 µM; 420,000 compounds, 0.13% hits; AID 1346378; in the data active = activity change below about -50%; inconclusive = mostly about -30% to -49%;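 note: -100% = wells without enzyme as full effect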
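In this quantitative HTS, ADP production by PI4K2A was quantified luminescently after 1 h at ambient temperature; 100 microM adenosine served as plate-quality control.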
G9a block: blocks human histone lysine methyltransferase G9a. Q96KQ7. G9a H3K9 monomethylation, AlphaScreen, 2 h. Potency, µM (series often up to 102 µM), for inactives: at the highest dose activity, negative = inhibition, most hits filed as inhibitors. 350,000 compounds, 8.8% hits; note: potency is the fitted concentration of half-maximal effect; % is set by controls: 0 for no effect and ±100 for the full control effect; nearly all actives have a fitted effect of over 75% in size
Target sequence (Q96KQ7 913-1193 limits assumed): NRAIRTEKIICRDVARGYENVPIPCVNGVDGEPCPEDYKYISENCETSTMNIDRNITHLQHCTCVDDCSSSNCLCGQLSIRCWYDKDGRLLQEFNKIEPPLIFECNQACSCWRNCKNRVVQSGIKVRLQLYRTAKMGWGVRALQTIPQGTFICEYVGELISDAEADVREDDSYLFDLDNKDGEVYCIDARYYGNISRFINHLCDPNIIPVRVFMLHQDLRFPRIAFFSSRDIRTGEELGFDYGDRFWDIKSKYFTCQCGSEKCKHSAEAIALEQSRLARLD
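G9a (20 nM) preincubated 15 min RT with compounds, then 500 nM biotinylated H3K9 peptide and 20 uM SAM added; 2 h RT reaction. Monomethyl-H3K9 product detected by AlphaScreen with anti-H3K9me1 antibody, streptavidin donor and anti-rabbit IgG acceptor beads.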
JMJD2A Tudor: inhibitors of human JMJD2A Tudor domain. AlphaScreen JMJD2A-Tudor / H3K4me3 peptide binding. O75164. 390,000 compounds, 4.4% hits. Potency, µM (titrated, usually from 114 µM), for inactives: top-dose activity change, negative = inhibition, most hits filed as inhibitors; note: potency is the fitted concentration of half-maximal effect; % is set by controls: 0 for no effect and ±100 for the full control effect; nearly all actives have a fitted effect of over 50% in size
ERG Ets-DNA blk: ERG Ets/DNA interaction inhibition | 370,000 compounds, 0.028% hits | fluorescence polarization, His-ERG Ets domain / labelled DNA | Potency, µM (top dose mostly 76.9 µM), for the others: top-dose FP activity, negative = inhibition, actives largely listed as inhibitors | P11308; active = well fitted inhibition curve with a large enough effect in the polarisation, with a control signal flat; inconclusive = small, poorly fitted or top-dose-only effect, or effect the other way, or a change in a side signal; inactive = no such curve, though single readings can be large or run the other way; the % refers to the polarisation;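 note: polarization taken with two DNA probes labelled with fluorescein and Texas red; potency is the fitted concentration of half-maximal effect; % of control where 0% means no effect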
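His-tagged ERG Ets domain (1 uM in the protein solution; 300mM KCl, 50mM Tris-HCl, 1mM EDTA, 1mM DTT, pH 7.5) received compound, then a probe mix of 5 nM fluorescein-DNA and 100nM Texas-615-DNA. Fluorescence polarization was read for both dyes.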
* = called active by the depositor; u = inconclusive; x = no result given; & = joins results of further samples; [ ] = another dose, or the depositor's remark. Unless noted, calls come from the whole dose curve; as a rule, active = well fitted curve in the direction sought with a large enough effect; inconclusive = small, poorly fitted or top-dose-only effect, or another doubt; inactive = no such curve, though single readings can be large; an effect the other way counts as inactive or inconclusive. This is a subset; the hit share may differ from the screen's.

nr	SMILES	HP1b binding inh	GLS inh	RGS4 inh	12-LOX inh
1	CCOC(=O)c1c(NC(=O)C(C)N2CCN(S(=O)(=O)c3cccs3)CC2)sc2c1CCC(C)C2 (stereo not drawn)	18%	1%	-6%	-11%
2	O=c1c2ccc(Cl)cc2nc2n1CC/C2=C\c1cccc(O)c1	-2%	-1%	4%	-10%
3	Cc1nn(-c2ccccc2)c2nc(C3CC3)cc(C(=O)Nc3cccc(F)c3)c12	79%[activator]	-6%	-8%	-11%
4	Cc1ccc(S(=O)(=O)Nc2cc3c(cc2N2CCOCC2)n(C)c(=O)n3C)cc1	0%	30%	-15%	u
5	Cc1ccc(S(=O)(=O)N2CCN(C(=O)c3cccc(-n4cccc4)c3)CC2)cc1	u	-7%	-8%	u
6	CN(C)CCSc1nnc2sc3ccccc3n12	13%	11%	10%	-3%
7	Cc1cccc(-c2nc(CSCC(=O)N3CCN(Cc4ccc5c(c4)OCO5)CC3)c(C)o2)c1	-4%	3%	0%	0%
8	CSC(=S)N/N=C/c1ccc(Br)cc1	42%	1%	1%	-1%

nr	PI4K2A inh	G9a block	JMJD2A Tudor	ERG Ets-DNA blk
1	-7	14%[59 µM]	-15%	0%
2	-1	-22%	-15%	2%
3	-2	29%[59 µM]	24%	4%
4	-2	u	-18%	4%
5	-5	50µM*	u	8%
6	14	-32%[12.7 µM]	-3%	-5%
7	-9	-19%[59 µM]	-27%	-2%
8	-2	11%	-7%	14%

The list continues:
nr	SMILES	HP1b binding inh	GLS inh	RGS4 inh	12-LOX inh
9	O=C(/C=C/c1ccco1)Nc1ccc2c(c1)OCO2	4%	6%	14%	-19%
10	COc1cccc(-c2[nH]nc3c2C(c2ccoc2)C(C#N)=C(N)O3)c1 (stereo not drawn)	-16%	18%	-31%	-25%
11	CCN1C(=O)C(O)(CC(=O)c2cccc(-n3cccc3)c2)c2ccccc21 (stereo not drawn)	u	6%	22%	-28%
12	Cc1cccc(/C=C2\Sc3ccc(C(=O)N4CCOCC4)cc3N(C)C2=O)c1	9%[57 µM]	-4%	-3%	0%
13	COc1ccc(N=Cc2ccc(-c3ccccc3)o2)cc1	u	-11%	-24%	0%
14	O=C(NCc1ccccc1)c1ccc(NC(=O)N2CC3CCCN3c3ccccc32)cc1 (stereo not drawn)	-11%	22%	-23%	u
15	O=C(c1ccc(F)cc1)N1CCC(C(=O)N2CCN(S(=O)(=O)c3cccc(Cl)c3)CC2)CC1	38%	-4%	-14%	-13%
16	Cc1ccc(-n2c(SCC(N)=O)nnc2-c2ccccn2)cc1C	9%	-21%	6%[11.4 µM]	0%

nr	PI4K2A inh	G9a block	JMJD2A Tudor	ERG Ets-DNA blk
9	-2	45µM*	u	-2%
10	2	50µM*	u	0%
11	2	x	u	-1%
12	4	-6%	-21%	3%
13	-5	u	u	4%
14	0	3.5µM*	u	0%
15	3	14%	-4%	-22%
16	9	-2%	-18%[11.4 µM]	7%

New compounds follow
nr	SMILES	HP1b binding inh	GLS inh	RGS4 inh	12-LOX inh
17	CC(=O)c1cc(-c2ccccc2)n(CCC(=O)NCCc2ccccc2)c1C	12%	3%	-2%	-17%
18	Cc1ccc(-n2c(Cc3cccn3C)nnc2SCC(=O)N2CCN(c3ccccc3)CC2)cc1	u	8%	-34%	-22%
19	O=C(CCc1nnc(CCCCc2ccccc2)o1)NCCN1CCOC1=O	42%[activator]	-5%	-4%	6%
20	CCOC(=O)C1CCN(c2cc3c(cc2NC(=O)c2ccccc2)n(C)c(=O)n3C)CC1	-5%	6%	3%[56.9 µM]	9%
21	CCOC(=O)/C(C#N)=C1/C=C(C)NC(c2ccccc2O)=N1	22%	19%	-17%	7%
22	O=C(CN1CCC(N2CCCCC2)CC1)N1CCOCC1	x	x	x	-23%
23	O=C(NCc1ccccc1)c1ncn[nH]1	39%	-11%	17%[11.4 µM]	10%
24	COC(=O)c1[nH]c2cc(OC)ccc2c1NC(=O)CN1CCN(c2cccc(C)c2)C(C)C1 (stereo not drawn)	u	3%	-6%[11.4 µM]	37%[activator]

nr	PI4K2A inh	G9a block	JMJD2A Tudor	ERG Ets-DNA blk
17	0	-34%[59 µM]	-33%	2%
18	-16	u	u	-1%
19	-1	22µM*	4%	8%
20	-3	-8%[59 µM]	-25%	-13%
21	-2	6%[12.7 µM]	-27%	0%
22	x	18µM*	x	x
23	6	-9%	-6%[11.4 µM]	2%
24	4	u	u	-5%

Following part:
nr	SMILES	HP1b binding inh	GLS inh	RGS4 inh	12-LOX inh
25	O=C(N/N=C/c1ccccc1)c1sccc1OCc1ccc(F)cc1	17%	5%	28%	0%
26	CCOc1ccc2oc(=O)cc(CN3CCN(C(=O)c4cccc(Cl)c4)CC3)c2c1	52%[activator]	u	-24%	-30%
27	COc1nc(N2CCOCC2)nc(-n2cccc2)n1	21%	0%	24%	0%
28	c1ccc(C(c2ccccc2)N2CCN(Cc3nnnn3C3CCCC3)CC2)cc1	31%	-10%	-31%	0%
29	Cc1cccc(N2CCN(C(=O)c3cccn3-c3nnc(N4CCCCC4)s3)CC2)c1C	-13%	4%	-10%	-5%
30	CCOc1ccc(-c2cc(CCCC(=O)NCCc3ccccc3)no2)cc1	30%	-1%	-25%	4%
31	Cc1c([C@@H]2C[C@H]3CN(Cc4cccc(Cl)c4)C(=O)[C@]34CCCN24)cnn1C	35%	-1%	-1%	-21%
32	O=C(c1ccc2c3c(cccc13)CC2)C1CCCN(Cc2ccccn2)C1 (stereo not drawn)	-3%[57 µM]	-3%	-9%	-22%

nr	PI4K2A inh	G9a block	JMJD2A Tudor	ERG Ets-DNA blk
25	5	-11%[2.33 µM]	-9%	3%
26	-4	-1%[59 µM]	-12%	1%
27	3	19%[12.7 µM]	-17%	5%
28	-3	50µM*	-21%	-13%
29	0	-26%[59 µM]	u	3%
30	1	9%	-5%	-2%
31	-1	x	-5%	18%
32	0	x	u	10%

Additional compounds.
nr	SMILES	HP1b binding inh	GLS inh	RGS4 inh	12-LOX inh
33	O=C(NC1CCCC1)C1CC(c2ccc(F)cc2)=NO1 (stereo not drawn)	52%[activator]	-1%	-11%	-2%&6%&44%
34	Cc1cccc(OCc2ccc(-c3nc(C#N)c(NCc4cccnc4)o3)o2)c1	-16%	3%	12%	-29%
35	Cc1nn(Cc2c(Cl)cccc2Cl)c(C)c1C(=O)NCc1ccc(C)n1C	-3%	1%	3%	46%[activator]
36	COc1ccc(OC)c(C2NC(=O)NC(C)=C2C(=O)Nc2ccc(C)cc2C)c1 (stereo not drawn)	7%	-13%	-19%	6%
37	COc1ccc(-c2noc(N3CCC(C(=O)N4CCN(c5ccccc5F)CC4)CC3)n2)cc1	32%	-11%	5%	-18%
38	O=C(CN1C(=O)S/C(=C\c2cccs2)C1=O)Nc1ccc(C(=O)O)c(O)c1	1%[57 µM]	16%	-48%	-28%
39	O=C(CCNc1ccc(F)cc1)c1cc2ccccc2o1	24%	-9%	-26%	u
40	Cc1ccc(C2C3=C(NCCN=C3c3ccccc3)C(=O)N2c2ccccc2)cc1 (stereo not drawn)	21%	-7%	-1%	17%

nr	PI4K2A inh	G9a block	JMJD2A Tudor	ERG Ets-DNA blk
33	-19	10%	-12%	-3%
34	-3	u	u	3%
35	-4	79µM*	-28%	0%
36	-1	20%[59 µM]	-31%	0%
37	-1	u	-22%	1%
38	3	-4%[0.0925 µM]	-17%	-3%
39	12	-44%	-5%	1%
40	1	-8%	-24%	x

Further records
nr	SMILES	HP1b binding inh	GLS inh	RGS4 inh	12-LOX inh
41	CCc1ccc(S(=O)(=O)c2nnn3c2nc(N2CCOCC2)c2ccccc23)cc1	31%	13%	9%[11.4 µM]	-8%
42	CCOC(=O)C1CCN(c2cc3c(cc2NC(=O)c2ccccc2OCC)n(C)c(=O)n3C)CC1	21%	5%	-36%[56.9 µM]	-11%
43	Oc1ccccc1-c1cc(-c2ccco2)[nH]n1	4%	20%	-28%	20µM*
44	N#CC1=C(O)CCCn2c1nc1ccccc1c2=O	29%	u	-19%	-9%
45	CC1Cc2ccccc2N1CC(=O)NC(=O)NC1CCCC1 (stereo not drawn)	-9%	u	16%	0%
46	CCOc1ccccc1N(CC(=O)NCCSCc1ccco1)S(=O)(=O)c1ccccc1	-9%	6%	-49%	284%[activator]
47	COc1ccc(C2CC2/C(C)=N/OC(=O)c2cccs2)cc1 (stereo not drawn)	12%	5%	26%	-6%

nr	PI4K2A inh	G9a block	JMJD2A Tudor	ERG Ets-DNA blk
41	-19	u	-5%	0%
42	-3	u	u	1%
43	3	14µM*	u	0%
44	-3	-5%	-21%	x
45	0	-37%	-35%	2%
46	-10	u	u	4%
47	-1	39%[59 µM]	-9%	3%

Complete entries from above. Order of screens: HP1b binding inh	GLS inh	RGS4 inh	12-LOX inh	PI4K2A inh	G9a block	JMJD2A Tudor	ERG Ets-DNA blk
Listed for Oc1ccccc1-c1cc(-c2ccco2)[nH]n1 : 4%	20%	-28%	20µM*	3	14µM*	u	0%
Listed for COc1ccc(OC)c(C2NC(=O)NC(C)=C2C(=O)Nc2ccc(C)cc2C)c1 (stereo not drawn) : 7%	-13%	-19%	6%	-1	20%[59 µM]	-31%	0%
Listed for Cc1cccc(/C=C2\Sc3ccc(C(=O)N4CCOCC4)cc3N(C)C2=O)c1 : 9%[57 µM]	-4%	-3%	0%	4	-6%	-21%	3%
Listed for Cc1nn(Cc2c(Cl)cccc2Cl)c(C)c1C(=O)NCc1ccc(C)n1C : -3%	1%	3%	46%[activator]	-4	79µM*	-28%	0%

Screening results: PubChem BioAssay, National Center for Advancing Translational Sciences (NCATS)
